# VDR inhibitor: vitamin D3 receptor (human) inhibition. P11473. VDR-SRC2-3 peptide fluorescence polarization, 2 h. Potency, µM, for inactives: max response, negative = inhibition, hits mostly inhibitors. actives 0.93% (n = 400,000). AID 504847; active = well fitted inhibition curve with a large enough effect; inconclusive = small, poorly fitted or top-dose-only effect, or another doubt; inactive = no such curve, though single readings can be large or run the other way; also: series mostly up to about 120 µM
# Target sequence (P11473 whole entry, looked up): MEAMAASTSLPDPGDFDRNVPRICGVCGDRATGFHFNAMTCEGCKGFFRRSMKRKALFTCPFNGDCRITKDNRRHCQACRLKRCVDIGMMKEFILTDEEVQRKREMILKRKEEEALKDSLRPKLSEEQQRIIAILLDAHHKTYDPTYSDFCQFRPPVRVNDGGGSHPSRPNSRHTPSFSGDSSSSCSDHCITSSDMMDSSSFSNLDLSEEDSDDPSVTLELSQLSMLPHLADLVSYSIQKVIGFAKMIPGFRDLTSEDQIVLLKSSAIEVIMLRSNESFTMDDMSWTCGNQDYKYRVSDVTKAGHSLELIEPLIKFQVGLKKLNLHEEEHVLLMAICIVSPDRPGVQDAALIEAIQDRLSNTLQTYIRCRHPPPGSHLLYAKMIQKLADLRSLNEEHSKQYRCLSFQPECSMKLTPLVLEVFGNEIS
#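 Signal is fluorescence polarization, reporting how far test compounds block the interaction of VDR with the SRC2-3 coregulator peptide after a 2 h room-temperature incubation.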
# Active calls of the source: *; ? = inconclusive; & = joins results of further samples. % is scaled to controls: 0 for no effect and ±100 for the full control effect; potency is read from the fitted curve at half-maximal effect. Not all compounds are listed. The share of hits here may be higher or lower than overall.
SMILES,VDR inhibitor
COc1ccc(C(=O)Nc2ccccc2C(=O)NCc2cccnc2)cc1OC,-12%
Cc1ccc(S(=O)(=O)c2nnn3c2nc(N2CCOCC2)c2ccccc23)cc1,-3%
CC1CCN(c2ccc3nnc(CCC(=O)NCc4ccco4)n3n2)CC1,9%
CCc1nnc(NC(=O)Nc2ccc(Cl)cc2)s1,0%
CCOC(=O)c1cc(C#N)c(Oc2ccc(F)cc2)nc1-c1ccccc1,1%
CCN(C(=O)CSc1ncnc2c1cnn2-c1ccccc1)C1CCS(=O)(=O)C1 (stereo unspecified),0%
O=C(Nc1ccc(N2CCOCC2)cc1)C1CC1,8%
O=C(c1cc(-c2ccccc2Cl)nc2ccccc12)N1CCN(c2ccccc2O)CC1,-17%
O=c1cc(O)c2sc3nc(-c4ccccc4)cc(C(F)(F)F)c3c2[nH]1,2%
Cc1ccc2oc(=O)c3cc(C(=O)N(Cc4ccccc4)C(C)C)sc3c2c1,-16%
O=C(CSc1nc2ccccc2o1)Nc1nc(-c2ccccc2)cs1,-8%
O=C1C2CCCN2C(c2ccc(Br)cc2)N1c1ccc(F)cc1 (stereo unspecified),-25%

# Ordered by the number under VDR inhibitor (highest first): 3 from the list above.
Compound,VDR inhibitor
Cc1ccc2oc(=O)c3cc(C(=O)N(Cc4ccccc4)C(C)C)sc3c2c1,-16%
O=C(c1cc(-c2ccccc2Cl)nc2ccccc12)N1CCN(c2ccccc2O)CC1,-17%
O=C1C2CCCN2C(c2ccc(Br)cc2)N1c1ccc(F)cc1 (stereo unspecified),-25%

# (continued)
SMILES,VDR inhibitor
Cc1ccc(P(C)(=O)c2ccc(C)cc2)cc1,13%
O=C1NC2=C(C(=O)CCC2)C(c2ccccc2)N1 (stereo unspecified),-5%
COc1ccc(NC(=O)c2ccc(-n3cncn3)c([N+](=O)[O-])c2)cc1OC,-13%
Cn1cnnc1SCC(=O)Nc1ccc(OCc2ccccc2)cc1,-24%
O=S(=O)(c1cccc(C(F)(F)F)c1)N1CCC(Oc2ccc(-n3cnnn3)cc2)CC1,-3%
COc1cccc(C(=O)N2CCOCC2)c1,-4%
CCOc1ccc(-n2c(=O)c3c(C)c(C)sc3n(CC(=O)NCc3ccco3)c2=O)cc1,10%
Cc1cccc(C(=O)NC(=S)NNC(=O)c2cccs2)c1,?
CC(C)CC(=O)Nc1ccc2nn(-c3ccccc3)nc2c1,-11%
Cc1nc2cc(C(F)(F)F)ccc2n1C1CCN(CC(=O)NC(C)(C)C)CC1,5%
Cc1ccc(C)c2[nH]c(=O)c(C(c3nnnn3Cc3ccccc3)N3CCc4ccccc4C3)cc12 (stereo unspecified),-9%
O=C(C(=O)N1CCOCC1)c1c[nH]c2ccccc12,-3%
COc1ccc(S(=O)(=O)N(C)C[C@H]2Oc3c(NC(=O)C4CCCCC4)cccc3C(=O)N([C@H](C)CO)C[C@@H]2C)cc1,-7%
CC1CCCC(C)N1C(=O)CN1CCN(c2nc(-c3ccc(F)cc3)cs2)CC1 (stereo unspecified),-7%
Cc1cccc(NC(=O)c2sc3nc(N4CCOCC4)c4c(c3c2N)CC(C)(C)OC4)c1,4%
Cc1ccccc1NC(=O)c1ccccc1NC(=O)c1ccccc1F,-5%&74%
COC(=O)c1cc(Cl)c(NC(=O)c2ccc(F)cc2)cc1OC,5%
Cc1ccc2sc(NC(=O)CN3C(=O)CCC3=O)nc2c1C,-7%
Cc1ccc(OCc2nc3ccccc3n2CC(C)C)cc1,6%
CCc1cc(C(=O)c2ccc(OC)cc2)c(NC(=O)COCC(=O)O)s1,?
O=C(CN1C(=O)CSc2ncccc21)NCCN1CCOCC1,7%
Cc1ccc(CN2CCN(Cc3cnn(-c4ccc(Cl)cc4)c3)CC2CCO)o1 (stereo unspecified),5%
O=C(NCc1n[nH]c(=S)n1-c1ccc(Br)cc1)c1ccc(S(=O)(=O)N2CCCC2)cc1,8%
Cc1nn(C)c(Cl)c1NC(=O)OCc1ccccc1,16%
CC1=C(C(=O)Nc2ccccc2Cl)C(c2ccc(N(C)C)cc2)NC(=O)N1 (stereo unspecified),13%
COc1cccc(COCC(O)CN2CCC(C(N)=O)CC2)c1 (stereo unspecified),-11%
CSc1nnc(-c2ccncc2)n1CCCN1CCCC1=O,13%
O=C(CC(Sc1ccc(Br)cc1)C(=O)O)c1ccc(F)cc1 (stereo unspecified),13µM*
COc1ccc(Cl)cc1C(=O)Nc1cccc(-c2ccc3nncn3n2)c1,-7%
O=C(O)c1ccc(/C=N/n2cc(-c3ccccc3)[nH]c2=S)cc1,-20%
COc1ccc(C2C(C(=O)Nc3cc(OC)c(OC)c(OC)c3)c3ccccc3C(=O)N2C)cc1OC (stereo unspecified),2%
O=C(O)c1cnc2[nH]c3ccccc3n2c1=O,-9%
COc1ccc(-n2nc(C(=O)NCC(=O)N3CCCC3)c3ccccc3c2=O)cc1,-8%
Cc1nc(-c2ccc(C)c(S(=O)(=O)N3CCC(C(=O)NCc4ccc(F)cc4)CC3)c2)no1,2%
CC(=O)c1sc(N/N=C\c2ccc(C)cc2)nc1C,-15%
CCOC(=O)c1ccccc1NC(=O)CN(c1ccccc1OCC)S(C)(=O)=O,-16%

# Gathered by group: those above with a CF3 group
SMILES,VDR inhibitor
O=c1cc(O)c2sc3nc(-c4ccccc4)cc(C(F)(F)F)c3c2[nH]1,2%
O=S(=O)(c1cccc(C(F)(F)F)c1)N1CCC(Oc2ccc(-n3cnnn3)cc2)CC1,-3%
Cc1nc2cc(C(F)(F)F)ccc2n1C1CCN(CC(=O)NC(C)(C)C)CC1,5%

# Following part:
SMILES,VDR inhibitor
Cc1ccc(C)c(CN2C(=O)c3ccccc3S(=O)c3ccc(C(=O)NCc4ccccc4Cl)cc32)c1 (stereo unspecified),?
COc1cc(C(=O)NNC(=O)C2CC=CCC2C(=O)O)cc(OC)c1OC (stereo unspecified),?
Cc1ccc(Cn2c(C)c3cnn(CC(=O)NCCc4ccc(Cl)cc4)c(=O)c3c2C)cc1,-9%
Cc1cccn2c(=O)c3cc(C(=O)NCc4ccccc4)c(=N)n(CCOCCO)c3nc12,0%
Cc1ccc(Cl)cc1N1CCN(S(=O)(=O)N2CCCCC2)CC1,-2%
CCc1ccc(-n2nc(C)c3c(C)cc(=O)n(CC(=O)NCc4ccc(C)cc4)c32)cc1,15%
COC(=O)c1ccc(-c2ccc(OC)c([C@H]3[C@H]4C=CC[C@@H](C)[C@@H]4C(=O)N3Cc3ccccc3)c2)cc1,-15%
CCCc1cc(=O)oc2c(C)c(OCC(=O)NCCCn3ccnc3)ccc12,-4%
CCN(CC)C(=O)c1[nH]cnc1C(=O)NCc1ccc(CNC(=O)OC(C)(C)C)cc1,-8%
CCN1CCN(C(c2cc(OC)ccc2OC)c2nnnn2Cc2ccccc2)CC1 (stereo unspecified),-1%
O=C(COC(=O)CC1CC2CCC1C2)NCc1ccccc1 (stereo unspecified),-15%
Cc1cc(C)n2nc(SCC(=O)Nc3cc(Cl)ccc3C)nc2n1,-1%
O=S(=O)(c1cccc2cccnc12)N1CCc2ccccc21,8%
O=C(NCCOC(=O)c1ccc(C(=O)OCCNC(=O)c2ccccc2)o1)c1ccccc1,3%
CCN(c1ccccc1)S(=O)(=O)c1nnc(NC(=O)c2ccccc2OC)s1,-6%&1%
CC(=O)Nc1ccc(/C=N/Nc2nncc3ccccc23)cc1,-5%
N#C/C(=C\c1ccc(O)c(O)c1)C(=O)NCCCc1ccccc1,?
CCN(CC)c1ccc(/C=C2\CCC(/C=N/NC(=O)c3ccc(=O)n(C)c3)=C2N2CCOCC2)cc1,-6%
CCCOc1ccc(C(=O)NCC2OCCc3ccccc32)cc1OC (stereo unspecified),-2%
CSc1nsc(SC)c1C(N)=O,-16%
CS(=O)(=O)c1cccc(S(=O)(=O)N2CCN(c3ccccn3)CC2)c1,11%
CCOc1ccc(S(=O)(=O)Nc2ccncc2)c(C)c1C,-21%
Cc1cccc(-c2cc(C(=O)N3CCCc4ccccc43)c3ccccc3n2)c1,-15%
Cc1c(C(=O)Nc2ccc(C(=O)Nc3ccccc3)cc2)cccc1[N+](=O)[O-],9%
COc1ccc2[nH]c(C)c(CCNC(=S)Nc3ccc(C)cc3)c2c1,3%
O=c1c2ccccc2sn1-c1cc(S(=O)(=O)N2CCOCC2)ccc1N1CCCCC1,28µM*
Cc1sc2nc(C(C)Nc3ccccc3N3CCOCC3)[nH]c(=O)c2c1C (stereo unspecified),3%
O=S(=O)(c1ccc(Cl)cc1)c1nc(-c2ccco2)oc1SCc1ccc(F)cc1,-8%
CN(C)c1ccc(CN(CC2CCCO2)C(=O)COc2ccc(Cl)cc2)cc1 (stereo unspecified),11%
O=C(CSc1nnc(-c2cccs2)o1)N1CCCCC1,1%
Cc1ccsc1/C=N/n1c(-c2cc(-c3ccccc3)n[nH]2)n[nH]c1=S,-9%
CCOC(=O)c1cnc2ccccc2c1NCc1ccco1,-28%
c1ccc(COc2ccc(Nc3ncnc4nc[nH]c34)cc2)cc1,9%
O=C1CC(c2ccc(F)cc2)Sc2ccccc2N1 (stereo unspecified),-6%
CCCC/C=C/C(NC(=O)c1ccc(-c2ccccc2)cc1)c1ccccc1 (stereo unspecified),-14%
CCNC(=S)N(CCc1ccccc1C)Cc1cc2cc(OC)c(OC)cc2[nH]c1=O,-8%
O=C(CN1CCSc2ccccc21)NCCCc1ccccc1,5%
Clc1ccc(-c2nnn3c2nc(N2CCCCC2)c2ccccc23)cc1,-16%
CSc1cccc(NC(=S)N(Cc2ccccc2)Cc2ccccn2)c1,-6%
CC1(C(=O)N2CCN(c3ccccc3)CC2)CC1(Cl)Cl (stereo unspecified),-1%
CC(C)OC(=O)C1C(=O)CC(C)(O)C(C(=O)OC(C)C)C1c1ccc([N+](=O)[O-])cc1 (stereo unspecified),-4%
O=C(CCC(=O)Nc1ccccc1Cl)NNC(=O)c1ccco1,2%
O=C(Nc1cccc(F)c1)Nc1ccc2c(c1)OCO2,3%
COc1cc(C)nc(N2CCC(C(=O)NC3CCCCC3)CC2)n1,1%
O=Nc1c(-c2c(O)[nH]c3cc(Br)ccc23)[nH]c2ccccc12,-28%&-17%
COC(=O)c1ccc(=O)n(Cc2ccc3c(c2)OCO3)c1,2%
O=C(Nc1cnc2ccccc2c1)N1CCOCC1,2%
COc1ccccc1NS(=O)(=O)c1cc(Cl)ccc1OC,-7%
Cc1c(C(=O)Oc2cccc3cccnc23)cccc1[N+](=O)[O-],-16%
CCOC(=O)N1CCN(C(=O)C2CCN(S(=O)(=O)c3ccc(Br)s3)CC2)CC1,20%
CCN(C(=O)CCN1C(=O)c2ccccc2S1(=O)=O)c1ccccc1,-15%
Cc1ccc(C)c(N2CCN(S(=O)(=O)c3ccc(-c4cnc(C5CC5)o4)cc3)CC2)c1,6%
CCOC(=O)CSc1nn(C)c(=S)s1,-1%
CCC(=O)N1CCc2cc(S(=O)(=O)Nc3cc(C)ccc3OC)ccc21,-10%
COc1ccc(CN2CCc3ccc(NC(=O)c4ccncc4)cc3C2)c(F)c1,1%
N#Cc1ccc(-c2cccs2)nc1SCc1ccc(Br)cc1,-14%
CC(CCc1ccccc1)NC(=O)C1CCN(c2nnc(-n3cccc3)s2)CC1 (stereo unspecified),15%
Cn1c(SCC(=O)Nc2ccccc2F)nnc1-c1cc2ccccc2o1,8%
CN(C)c1cc(=O)n2c(n1)SCCC2,16%
O=C(C1CCC1)N1CCN(c2ccc(C(F)(F)F)cc2[N+](=O)[O-])CC1,5%

# More compounds
SMILES,VDR inhibitor
COc1ccccc1C(=O)NCC(c1ccc(N(C)C)cc1)N1CCc2ccccc21 (stereo unspecified),11%
COc1ccccc1NC(=O)C1CCCN(c2cc(C)nc3ncnn23)C1 (stereo unspecified),-7%
CC(C)NC(=O)c1onc(CSc2ccc(F)cc2)c1C(=O)O,-10%
CC12CCC(=O)N1C(C(=O)Nc1nc(-c3ccc(F)cc3)cs1)CS2 (stereo unspecified),4%
CCc1ccc(CSc2nc(-c3ccccc3OC)nc3c2Cc2c(CO)cnc(C)c2O3)cc1,2%
CCOc1ccccc1N1CCN(CC(O)COCc2cccs2)CC1 (stereo unspecified),6%
COc1ccc2c(C)cc3nnnn3c2c1,1%
CCOc1ccccc1NC(=O)C1CCCN(S(=O)(=O)c2ccccc2)C1 (stereo unspecified),9%
COc1cccc(OC)c1OCCNCC1CSc2ccccc2O1 (stereo unspecified),12%&-4%
O=C(COC(=O)/C=C/c1ccc2c(c1)OCO2)Nc1ccc(S(=O)(=O)N2CCCC2)cc1,-2%
O/N=C1\CCCc2ccc(Cl)cc21,-6%
NC(=O)CSc1nnc2ccc(-c3ccc(Cl)cc3)nn12,11%
CCCCN(CCCC)c1nc(OC)nc(-n2nnc(C(C)=O)c2C)n1,-1%
CC(=O)c1ccc(N=Cc2c(O)n(-c3cc(Cl)ccc3N3CCOCC3)c(=O)c3ccccc23)cc1,-9%
Cc1cc([N+](=O)[O-])nn1CC(=O)N(C)C1CCCCC1,-2%
CCCN(CC(=O)Nc1cccc(S(N)(=O)=O)c1)CC(=O)Nc1ccc(F)c(F)c1F,6%

# Laid out differently: entries from further up.
CCCCN(CCCC)c1nc(OC)nc(-n2nnc(C(C)=O)c2C)n1
  VDR inhibitor: -1%

CC(=O)c1ccc(N=Cc2c(O)n(-c3cc(Cl)ccc3N3CCOCC3)c(=O)c3ccccc23)cc1
  VDR inhibitor: -9%
